Mtb bLac sens: beta-lactam sensitization of Mtb H37Rv; M. tuberculosis H37Rv growth with meropenem, percent inhibition; hits of this screen are not shown here; inhibition, % at 25 µM; 330,000 tested, 0.27% active; AID 434955;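 active means about 74% or more and at least 40 points above the plate without the antibiotic, then above 30% in a dose series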;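 further: growth measured after seven days incubation then overnight dye step; 0% = bacteria only wells and 100% = bacteria with antibiotic; twin plates without the antibiotic show which effects depend on it; some results filed as inactive read as strong as hits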
YopH PTP inh: blocks Yersinia enterocolitica YopH tyrosine phosphatase | fluorescence Ex485/Em525 | inhibition, %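 (about 10 µM by stock and volumes)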 | 140,000 tested, 0.16% active;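 active means inhibition of 50% or more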;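 further: controls were vehicle for no effect and minimum signal wells for full effect; inactives centre near -20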
Mtb H37Rv: M. tuberculosis H37Rv growth inhibitors, H37Rv strain (AID 1626); M. tuberculosis H37Rv growth inhibition; higher % means a stronger effect; inhibition, % at 10 µM, or IC50 in µM where a hit was titrated; 220,000 tested, 0.95% active;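 active means confirmed in a dose series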;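 further: bacteria incubated seven days before Alamar blue readout; 0% = bacteria only wells and 100% = bacteria with antibiotic wells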
RecA intein inh: blocks M. tuberculosis RecA intein splicing; P9WHJ3; cell-free RecA intein splicing, fluorescence; inhibition, %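 (about 9 µM by stock and volumes)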; 290,000 tested, 0.75% active; in the data active means inhibition above about 30%;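 further: 0% = vehicle wells and 100% = reference inhibitor control wells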
Target sequence (P9WHJ3 whole entry, looked up): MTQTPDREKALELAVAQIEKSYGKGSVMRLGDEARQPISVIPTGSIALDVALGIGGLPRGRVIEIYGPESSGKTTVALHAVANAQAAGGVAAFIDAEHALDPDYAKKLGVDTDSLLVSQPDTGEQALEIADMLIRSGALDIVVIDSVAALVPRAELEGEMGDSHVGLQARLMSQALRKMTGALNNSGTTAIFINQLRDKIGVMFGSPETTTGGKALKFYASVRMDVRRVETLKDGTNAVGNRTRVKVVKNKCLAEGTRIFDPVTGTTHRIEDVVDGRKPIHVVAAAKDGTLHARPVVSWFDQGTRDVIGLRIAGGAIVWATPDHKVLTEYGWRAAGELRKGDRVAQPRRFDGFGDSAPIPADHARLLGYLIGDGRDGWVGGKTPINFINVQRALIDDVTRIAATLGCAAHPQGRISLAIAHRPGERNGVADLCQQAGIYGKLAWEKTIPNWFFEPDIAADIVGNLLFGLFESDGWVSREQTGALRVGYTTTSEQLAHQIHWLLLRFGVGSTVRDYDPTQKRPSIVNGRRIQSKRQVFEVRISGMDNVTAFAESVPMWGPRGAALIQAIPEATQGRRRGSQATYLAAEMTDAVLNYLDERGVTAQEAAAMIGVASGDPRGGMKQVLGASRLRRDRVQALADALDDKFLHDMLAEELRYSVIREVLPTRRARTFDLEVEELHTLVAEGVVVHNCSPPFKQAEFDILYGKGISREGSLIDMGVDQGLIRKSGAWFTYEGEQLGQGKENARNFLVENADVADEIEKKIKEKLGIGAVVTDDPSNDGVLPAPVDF
Arbovirus inh: blocks arbovirus infection. arbovirus infection cell-based antiviral screen. inhibition, % at 10 µM. 200,000 tested, 0.37% active;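 active means inhibition from about 30%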;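 further: bluetongue infection of BSR cells; cell survival read as ATP light after 72 h; 0% = infected wells without compound and 100% = uninfected wells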
Arbovirus inh repeat: further read-out of Arbovirus inh, marked with its call; inhibition, %; measured here: 10K subset replicate screen; many hits read low in the repeat;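 first of two repeat runs on a subset; 0% = infected and 100% = uninfected wells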
Active calls of the source: *; / = not tested or not shown.

SMILES | Mtb bLac sens | YopH PTP inh | Mtb H37Rv | RecA intein inh | Arbovirus inh | others
COCCCNc1ncnc2nc[nH]c12 | 1.7 | -36.9 | 0.0% | 2.4 | -0.6 | Arbovirus inh repeat=5.7
O=C(Nc1nnc(-c2ccco2)o1)C1CC1 | 42.7 | / | 4.4% | -6.1 | 13.5
COc1ccc(OC)c(CCNC(=O)Cn2ccc3cc(S(=O)(=O)N4CCCC4)ccc32)c1 | 18.3 | / | / | -1.8 | /
Cn1c(=NC(=O)C2CCCCC2)sc2cc([N+](=O)[O-])ccc21 | 55.9 | / | 30.4% | 6.6 | 7.1
Cc1ccc(Oc2ncccc2C(=O)NC2CCSC2=O)cc1 (stereo unspecified) | -3.0 | / | 6.7% | 0.0 | -4.2
CN(N)N=Nc1nc2c([nH]1)c(=O)n(C)c(=O)n2C | 0.7 | / | 4.3% | -2.5 | /
O=C(c1ccc(F)cc1F)N1CCCC(c2nc(-c3cccs3)no2)C1 (stereo unspecified) | 2.3 | / | / | 0.5 | /
Cc1ccc2nc(-c3ccc(Br)o3)oc(=O)c2c1 | 27.3 | -6.4 | 3.9% | 3.1 | 37.3*
CCOC(=O)Cn1c(N)c(C(=O)OC)sc1=S | -7.0 | -39.4 | -3.8% | -0.4 | 0.0
O=C1NC(=O)C(CCc2ccncc2)(C2CCCCC2)C(=O)N1 | -6.8 | -46.2 | / | 0.1 | -5.8
CCOC(=O)c1cc(NC(=O)N(C)C2CCCCC2)c(C)nc1C | -1.5 | / | / | 0.6 | /
CCN(CC)S(=O)(=O)c1ccc(OC)c(NC(=S)Nc2cc(C)ccc2C)c1 | 5.9 | -18.0 | 5.8% | 1.9 | -5.6
Cc1cc(=O)oc2cc(OCC(=O)N3CCN(Cc4ccc5c(c4)OCO5)CC3)ccc12 | -4.3 | / | / | -1.0 | /
O=C(/C=C/c1cccs1)NCc1cccs1 | -1.9 | / | / | 2.5 | /
COc1ccc(C2CCCN2C(=S)Nc2cccc(C)c2C)cc1OC (stereo unspecified) | 4.3 | / | 9.4% | -0.1 | -2.0
Cn1c(SCc2nc3ccccc3s2)nnc1-c1ccc2c(c1)OCO2 | -7.7 | -13.9 | -4.7% | 1.2 | 0.5
O=C(CN(c1ccc(Cl)cc1)S(=O)(=O)c1ccc(Cl)c([N+](=O)[O-])c1)NCCc1ccc(F)cc1 | -1.7 | 4.2 | -3.0% | -0.3 | 4.1
CC(C)Nc1ncnc2c1cnn2Cc1ccccc1Cl | 3.9 | / | / | -3.2 | /
CSc1ccc(S(=O)(=O)NCCSc2ccccn2)cc1 | 16.7 | -7.5 | 11.8% | 3.5 | 7.2
CC(=O)Nc1ccc(NC(=O)C2C3CCC(C3)C2C(=O)O)cc1 (stereo unspecified) | -3.0 | / | / | -1.8 | /
NC1=NC(=O)C(Cc2ccccc2)S1 (stereo unspecified) | -6.3 | / | 1.8% | -2.6 | 0.8
Cn1c(=O)[nH]c(=O)c2c1nc(CN1CCOCC1)n2CCCO | / | 0.6 | -3.5% | -0.9 | -2.1
COC(=O)c1cc(NC(=O)c2ccccc2)c(=O)oc1C | -0.7 | / | -3.5% | -1.2 | 6.5
Cc1ccc(C(=O)NNC(=O)CCC(=O)NCc2ccccc2)cc1Br | 2.4 | / | / | -1.4 | /
COc1ccc(NC(=S)NC2CCCCCC2)c(OC)c1 | 6.7 | -9.0 | 4.3% | 3.7 | 16.4
COc1ccc(CCN=C(C)c2cc(C)c(C)cc2O)cc1OC | -12.2 | / | / | -3.9 | /
C=CCOc1ccccc1CNc1ccccc1C | 8.6 | -29.8 | -3.7% | -0.3 | 0.4
CCSc1nnc(-c2ccc(S(=O)(=O)N3CCCC3)cc2)n1C | 2.7 | -35.3 | -2.2% | -1.8 | -1.2
COc1cc(/C=C2/C(=N)N3C(=NC2=O)SN=C3S(C)(=O)=O)ccc1OC(=O)c1ccco1 | 55.9 | / | / | 25.7 | /
CN(Cc1ccco1)S(=O)(=O)c1nnc(NC(=O)c2cccc(Cl)c2)s1 | 10.0 | / | / | 1.5 | /
O=C(NCCOc1ccccc1F)c1ccccc1SCc1ccc(F)cc1 | 0.4 | -20.9 | 6.2% | 4.2 | -9.7
Clc1cccc(N2CCN(c3nnnn3-c3ccccc3)CC2)c1 | -11.8 | / | 11.1% | 8.2 | -7.0
CCOc1cc2[nH]c(=O)n(CCCN3CCN(c4ccc(OC)cc4)CC3)c(=O)c2cc1OCC | -15.0 | / | 10.1% | -2.2 | -2.8
O=C(O)C[C@H]1c2cc(C(F)(F)F)ccc2S(=O)(=O)N1C1CCCC1 | 6.1 | / | 0.0% | -2.9 | /
COc1ccc(CNC(=O)c2[nH]c(C)c(C(C)=O)c2C)cc1 | -2.1 | / | / | 3.7 | /
CSc1ccccc1NC(=O)c1ccco1 | -17.2 | -30.8 | -5.5% | -1.5 | -9.2
CCN(CC)CCn1c2c(c(SCC(=O)Nc3cc(C)ccc3C)nc1=O)CCC2 | 0.0 | / | / | 1.1 | /
CCOC(=O)CCC(NC(=O)CCCC(=O)NC(CCC(=O)OCC)C(=O)OCC)C(=O)OCC (stereo unspecified) | -11.8 | -20.8 | -3.4% | 4.9 | -8.8
CC1=NN(C(N)=S)C(=O)C1N=Nc1ccccc1C (stereo unspecified) | 96.7 | -20.2 | 62.2% | -0.7 | -1.8
C=CCOc1ccc(CNc2ccc(NC(=O)CC(C)C)cc2)cc1OC | -0.6 | -25.3 | -10.1% | 0.7 | 10.8
NC(N)=NS(=O)(=O)c1ccc(NC(=S)NC(=O)/C=C/c2cccs2)cc1 | 3.1 | / | 3.4% | -0.9 | -9.0
Cc1ccc(C)c(-c2nnc(NC(=O)c3ccc([N+](=O)[O-])o3)o2)c1 | 97.9 | / | / | -5.9 | /
O=C(c1ccc(F)cc1)N1CCCCC(Sc2nnnn2-c2ccccc2)C1=O (stereo unspecified) | -4.0 | -27.6 | 5.6% | -0.7 | 2.6
O=C(COC(=O)/C=C/c1ccc([N+](=O)[O-])cc1)NCc1ccccc1 | 1.8 | -17.4 | 0.8% | 2.6 | -0.6
CCOC(=O)c1ccc(NC(=O)c2nc(S(=O)(=O)Cc3ccccc3)ncc2Cl)cc1 | 3.0 | / | / | 27.1 | /
CCOC(=O)c1c(NC(=S)Nc2ccccc2)sc2c1CCN(C)C2 | 12.8 | -12.1 | -1.1% | -19.5 | 4.5
CCC/C(O)=C1\C(=O)CCCC1=NCCc1c(C)[nH]c2ccc(OC)cc12 | -3.8 | / | -10.2% | 1.4 | 10.9
O=C(NCCOc1ccccc1)c1ccccc1NC(=O)C1CCCO1 (stereo unspecified) | 2.5 | / | 2.1% | 1.0 | 1.8
CCCNc1ncnc2sc(C)c(C)c12 | -8.5 | -50.9 | 3.1% | / | 1.8
O=C(C1=C(O)C(=O)N(c2ncccn2)C1c1ccc(Cl)cc1)c1ccco1 (stereo unspecified) | 3.9 | -42.7 | -4.9% | -3.1 | -1.4
CC(=O)NNC(=O)c1cc2c3ccccc3n(C)c2s1 | -2.4 | / | -1.1% | / | -4.1
O=C(COc1ccccc1)N(Cc1ccccc1)c1nc(-c2ccccc2)cs1 | 11.4 | -35.3 | -4.8% | 1.5 | -9.2
COc1cccc(NC(=S)NNC(=O)Cn2nc([N+](=O)[O-])cc2C)c1 | -4.0 | / | 1.5% | -1.6 | 0.5
CCC(=O)Nc1ccc(N2CCN(S(C)(=O)=O)CC2)cc1 | -11.7 | -13.3 | -1.7% | -2.9 | 6.6
O=C(c1cc2ccccc2o1)N1CCN(c2ccccc2Cl)CC1 | 5.7 | 0.0 | -3.4% | 11.5 | 7.6
CCc1ccc(C2=NN(CCC(=O)NC3CCCCCC3)C(=O)CC2)cc1 | -4.4 | / | / | -7.1 | /
COc1ccc(NC(=O)CSc2cc(C)ccc2C)cn1 | -3.1 | / | -3.6% | 1.2 | -6.2
CCOc1ccc(C(C(=O)NC2CCCC2)N(CCOC)C(=O)CNC(=O)c2ccco2)cc1 (stereo unspecified) | 3.2 | / | / | 1.0 | /
CCN(CC)S(=O)(=O)c1ccc2c(c1)nc(SCC(N)=O)n2-c1ccc(OC)cc1 | 41.0 | -10.2 | 12.4% | 2.9 | 0.4
C=C(C)CSc1nnc(CCCCCNC(=O)OC(C)(C)C)o1 | -1.2 | / | 6.5% | 0.2 | /

As a short view, some entries already given.
SMILES | Mtb bLac sens | YopH PTP inh | Mtb H37Rv | RecA intein inh | Arbovirus inh | others
CCOC(=O)CCC(NC(=O)CCCC(=O)NC(CCC(=O)OCC)C(=O)OCC)C(=O)OCC (stereo unspecified) | -11.8 | -20.8 | -3.4% | 4.9 | -8.8
CC1=NN(C(N)=S)C(=O)C1N=Nc1ccccc1C (stereo unspecified) | 96.7 | -20.2 | 62.2% | -0.7 | -1.8
C=CCOc1ccc(CNc2ccc(NC(=O)CC(C)C)cc2)cc1OC | -0.6 | -25.3 | -10.1% | 0.7 | 10.8
NC(N)=NS(=O)(=O)c1ccc(NC(=S)NC(=O)/C=C/c2cccs2)cc1 | 3.1 | / | 3.4% | -0.9 | -9.0
Cc1ccc(C)c(-c2nnc(NC(=O)c3ccc([N+](=O)[O-])o3)o2)c1 | 97.9 | / | / | -5.9 | /
O=C(c1ccc(F)cc1)N1CCCCC(Sc2nnnn2-c2ccccc2)C1=O (stereo unspecified) | -4.0 | -27.6 | 5.6% | -0.7 | 2.6
O=C(COC(=O)/C=C/c1ccc([N+](=O)[O-])cc1)NCc1ccccc1 | 1.8 | -17.4 | 0.8% | 2.6 | -0.6
CCOC(=O)c1ccc(NC(=O)c2nc(S(=O)(=O)Cc3ccccc3)ncc2Cl)cc1 | 3.0 | / | / | 27.1 | /
CCOC(=O)c1c(NC(=S)Nc2ccccc2)sc2c1CCN(C)C2 | 12.8 | -12.1 | -1.1% | -19.5 | 4.5
CCC/C(O)=C1\C(=O)CCCC1=NCCc1c(C)[nH]c2ccc(OC)cc12 | -3.8 | / | -10.2% | 1.4 | 10.9
O=C(NCCOc1ccccc1)c1ccccc1NC(=O)C1CCCO1 (stereo unspecified) | 2.5 | / | 2.1% | 1.0 | 1.8
CCCNc1ncnc2sc(C)c(C)c12 | -8.5 | -50.9 | 3.1% | / | 1.8
O=C(C1=C(O)C(=O)N(c2ncccn2)C1c1ccc(Cl)cc1)c1ccco1 (stereo unspecified) | 3.9 | -42.7 | -4.9% | -3.1 | -1.4
CC(=O)NNC(=O)c1cc2c3ccccc3n(C)c2s1 | -2.4 | / | -1.1% | / | -4.1
O=C(COc1ccccc1)N(Cc1ccccc1)c1nc(-c2ccccc2)cs1 | 11.4 | -35.3 | -4.8% | 1.5 | -9.2
COc1cccc(NC(=S)NNC(=O)Cn2nc([N+](=O)[O-])cc2C)c1 | -4.0 | / | 1.5% | -1.6 | 0.5
CCC(=O)Nc1ccc(N2CCN(S(C)(=O)=O)CC2)cc1 | -11.7 | -13.3 | -1.7% | -2.9 | 6.6
O=C(c1cc2ccccc2o1)N1CCN(c2ccccc2Cl)CC1 | 5.7 | 0.0 | -3.4% | 11.5 | 7.6
CCc1ccc(C2=NN(CCC(=O)NC3CCCCCC3)C(=O)CC2)cc1 | -4.4 | / | / | -7.1 | /
COc1ccc(NC(=O)CSc2cc(C)ccc2C)cn1 | -3.1 | / | -3.6% | 1.2 | -6.2

The list continues:
SMILES | Mtb bLac sens | YopH PTP inh | Mtb H37Rv | RecA intein inh | Arbovirus inh | others
O=C(CNC(=O)c1ccccc1)OCc1cccc(Br)c1 | -1.3 | / | -1.1% | 1.1 | 7.3
S=c1[nH]ncn1-c1ccccn1 | 1.5 | -10.6 | -1.0% | 0.1 | 5.0
COc1cc([N+](=O)[O-])cc(/C=N/N(CCC#N)C(C)=O)c1O | -0.1 | / | 1.2% | / | 8.8
COc1ccc(Cl)c(Cn2c(NCCCN(C)C)nc3c2c(=O)n(C)c(=O)n3C)c1 | 1.1 | -7.4 | -3.8% | / | 5.3
O=C(NNc1ccccn1)c1ccc(Cl)nc1 | 0.0 | -22.4 | -0.9% | / | -12.0
O=C(CCSc1ccccc1)Nc1ccccc1Br | -6.5 | / | 5.4% | -1.6 | 0.5
Cc1ccc(OCC(=O)N(C)Cc2ccccc2)c([N+](=O)[O-])n1 | -2.2 | -22.2 | 0.1% | 1.0 | -0.5
Cc1cc(C)nc(N2CCN(C(=O)CCC(=O)Nc3nnc(CC(C)C)s3)CC2)n1 | -4.2 | / | 15.3% | -0.1 | /
CCOc1ccc(CCNC(=O)Nc2ccccc2C)cc1OCC | 1.4 | / | / | 0.8 | /
Cc1ccc2nc(N3CCN(S(=O)(=O)c4ccc(C)c(Cl)c4)CC3)c(C#N)cc2c1 | -5.8 | -12.2 | 7.5% | 3.2 | 16.1
O=C(O)c1sccc1SCc1ccc(Cl)c(Cl)c1 | -3.0 | -13.0 | -2.8% | 7.8 | 15.0
CCOc1ccc(CN2C(=O)CC(=O)N(S(=O)(=O)c3ccc(OCC)cc3)C2=O)cc1 | -6.7 | / | -9.9% | 0.8 | /

Source: PubChem BioAssay

Only part of the results is shown, so the mix of outcomes need not match the whole.
